Compound activity deposited in PubChem by National Center for Advancing Translational Sciences (NCATS).
Sfp PPTase inh: inhibitors of Bacillus subtilis Sfp phosphopantetheinyl transferase. Biochemical Sfp PPTase activity, qHTS. Potency, µM, without a hit: max response, negative = inhibition, usual class: inhibitors. 310,000 tested, 3.5% active; active means well fitted inhibition curve with a large enough effect; inconclusive means small, poorly fitted or top-dose-only effect, or another doubt; inactive means no such curve, though single readings can be large or run the other way;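 further: the enzyme is Sfp with the accession as filed and its product quenches rhodamine fluorescence; potency means the concentration at half of the fitted maximal effect; 0% = enzyme reaction without inhibitor and -100% = no enzyme wells; top concentration of the series not given in the record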
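With Hepes-Na pH 7.6 buffer containing 10 mM MgCl2, Sfp (15 nM) modified BHQ-2-YbbR (12.5 uM) using rhodamine-CoA (5 uM). Two reads 30 minutes apart at 525/598 nm yielded each well's rate.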
Menin MLL FP FL: menin-MLL binding inhibition, fluorescein peptide. Fluorescence polarization, fluorescein-MLL peptide displacement from menin. FP activity change, % at 61.4 µM. 290,000 tested, under 10 active. AID 1766; inconclusive = falling polarisation curve, or a change in total fluorescence; inactive = total fluorescence flat and polarisation flat or rising; no compound was filed as active; the % refers to the polarisation; negative = inhibition;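 further: % of control where 0% means no effect; inhibitors lower the polarisation; unlabelled MLL peptide was the positive control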
PINK1 expr mod: PINK1 expression modulation | PINK1 immunofluorescence, high-content cytometry, 24 h | Potency, µM (top dose mostly 76.6 µM), without a hit: at the highest dose activation (PINK1 increase), actives largely listed as activators | 410,000 tested, 0.2% active; active = well fitted activation curve with a large enough effect; inconclusive = small, poorly fitted or top-dose-only effect; inactive = flat fitted curve, though single readings scatter; cell line not stated here;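 further: potency means the concentration at half of the fitted maximal effect; % of control where 0% means no effect; nearly all actives have a fitted effect of over 65% in size; a mitochondrial uncoupler was the plate control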
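PINK1 protein, normally rapidly degraded, was detected by immunofluorescence after 24 hour compound treatment of a stable cell line. Titration data (5 concentrations) came from laser-scanning cytometry, with CCCP-treated wells as controls.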
TRPML1 blocker: inhibitors of human TRPML1 channel | Q9GZU1 | TRPML1-inducible cells, Ca2+ dye fluorescence, FDSS; hits give low values; inhibition of EC80 agonist-evoked calcium signal | activity change, negative = inhibition, % (test concentration not listed) | 390,000 tested, 0.02% active; in the data active means activity change below about -50%; inconclusive means about -30% to -50%; inactive means above about -30%;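 further: stimulus is agonist 54-4 at its EC80 concentration; on the % scale 0 is the no-effect control and ±100 the full control effect; compound concentration not given in the record; the text of the record puts the active cut at -80%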
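Calcium fluorescence in TRPML1-DL cells induced overnight with Tet: a 110 s read after compound pin addition, then a 110 s antagonist read after challenge with 54-4 at 4 uM final (EC80).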
TRPV1 PAM: enhances activation of the human vanilloid receptor TRPV1 | Q8NER1 | TRPV1-expressing cells, Fluo-8 calcium influx, capsaicin EC20 potentiation; host cell line not named in the record; control for the full effect not named in the record | potentiation, % at 8.33 µM | 320,000 tested, 0.02% active | AID 540277; active means potentiation above 80%; inconclusive means 30% to 80%; inactive means below 30%; further: 0% is about no effect
Target sequence (Q8NER1 whole entry, looked up): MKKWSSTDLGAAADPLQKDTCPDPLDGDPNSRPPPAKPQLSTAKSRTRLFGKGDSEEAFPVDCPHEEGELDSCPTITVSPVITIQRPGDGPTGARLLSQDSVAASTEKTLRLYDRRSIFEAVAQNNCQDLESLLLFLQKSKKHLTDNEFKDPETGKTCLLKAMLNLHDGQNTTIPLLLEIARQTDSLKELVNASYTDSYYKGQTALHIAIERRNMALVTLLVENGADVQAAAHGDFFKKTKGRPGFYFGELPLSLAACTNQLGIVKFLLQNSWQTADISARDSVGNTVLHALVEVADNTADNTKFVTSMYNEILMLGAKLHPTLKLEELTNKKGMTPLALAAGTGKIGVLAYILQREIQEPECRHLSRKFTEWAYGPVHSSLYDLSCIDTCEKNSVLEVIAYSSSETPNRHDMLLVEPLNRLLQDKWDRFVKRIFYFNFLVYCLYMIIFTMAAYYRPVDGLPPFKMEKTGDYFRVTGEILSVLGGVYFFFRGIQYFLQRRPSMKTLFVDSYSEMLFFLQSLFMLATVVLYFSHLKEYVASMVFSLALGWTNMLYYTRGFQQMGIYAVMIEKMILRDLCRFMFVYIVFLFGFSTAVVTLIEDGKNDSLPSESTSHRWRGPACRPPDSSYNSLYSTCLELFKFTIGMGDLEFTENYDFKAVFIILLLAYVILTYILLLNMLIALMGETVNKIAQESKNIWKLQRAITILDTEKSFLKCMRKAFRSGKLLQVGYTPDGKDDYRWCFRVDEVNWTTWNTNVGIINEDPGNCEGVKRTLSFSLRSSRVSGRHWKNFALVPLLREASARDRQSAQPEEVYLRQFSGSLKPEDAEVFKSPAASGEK
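TRPV1-expressing cells were cultured overnight at 35.5C and loaded with Fluo-8 calcium dye for 40 to 90 min at room temperature. After a 10 s baseline, compound was added and calcium influx was read kinetically for 3 min (ex 480/em 520 nm).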
ClpP mod: qHTS Assay for Activators of ClpP | purified B. subtilis ClpP, FRET peptide cleavage, 20 min | Potency, µM (titrated, usually from 57.5 µM), inactives show at the top dose activity change, negative = active | 340,000 tested, 1.9% active; active = well fitted falling curve with a large enough effect; inconclusive = small, poorly fitted or top-dose-only effect; inactive = no such curve, though single readings can be large or run the other way; further: potency means the concentration at half of the fitted maximal effect; the source files actives as falling curves though it sought activators and does not explain the sign; nearly all actives have a fitted effect of over 65% in size; many hits overshoot -100%
Target sequence (P80244 whole entry, looked up): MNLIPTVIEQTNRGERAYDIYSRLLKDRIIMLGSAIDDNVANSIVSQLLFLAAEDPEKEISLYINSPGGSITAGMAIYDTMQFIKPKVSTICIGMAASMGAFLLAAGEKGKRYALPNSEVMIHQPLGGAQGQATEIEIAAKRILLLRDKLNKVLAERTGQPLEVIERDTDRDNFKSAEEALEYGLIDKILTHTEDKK
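ClpP 10 microg/mL final, pH 8 Tris/KCl buffer with BSA, glycerol, Tween-20; compound pinned in; FRET-FV substrate; RT 20 min; Ex320/Em430; ΔFRET vs ADEP 5.8 microM, DMSO, no enzyme.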
TRPML1 agonist: human mucolipin-1 channel agonism. TRPML1-expressing cells, Ca2+ dye fluorescence, FDSS; host cell line not named in the record; reference of the full effect not given here. activation, % (test concentration not listed). 410,000 tested, 0.12% active; in the data active = activation above about 50%; inconclusive = about 30% to 50%; inactive = below about 30%; further: 0% is about no effect; the text of the record puts the active cut at 80%
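Tet-induced TRPML1-DL cells, 1,500 per well, cultured overnight, were loaded with a no-wash Ca2+ dye for 45–90 min. Calcium fluorescence was recorded on the FDSS for 110 s after compound addition, before the EC80 agonist (4 uM 54-4) was added.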
Numbers without * were called inactive; ? = inconclusive; nt = not tested or not shown; [ ] = dose if it differs, or a comment.

Second line of a record: PINK1 expr mod	Menin MLL FP FL	Sfp PPTase inh	TRPV1 PAM	TRPML1 blocker	ClpP mod	TRPML1 agonist
> Cc1cccc(-n2ncc3c2CCCC3NC(=O)Cc2c(C)noc2C)c1C (stereo not given)
 : -1.0%	-2.3	4%	2	11	0.2%	-0.6
> CCn1c(=O)cc(SCC(=O)Nc2cccnc2)c2ccccc21
 : 14%[38.3 µM]	3.1	15%	-2	16	-26%	2.5
> O=[N+]([O-])c1cccc(C=Nc2cc3c(cc2Br)OCCO3)c1
 : 3.0%	-0.9	0%	21	9	-5.5%	-0.4
> CCN(c1cc(C)cc(C)c1)S(=O)(=O)c1nnc(NC(=O)C(C)(C)C)s1
 : 3.5%	-5.1	19%	1	-4	0.0%	3.0
> Cc1nn(-c2ccccc2)c2c1C(=O)NC(=O)C(C)(C)C2
 : 0.0%	6.6	11%	-4	22	-6.2%	1.3
> COc1ccccc1Nc1nc(-c2ccc([N+](=O)[O-])cc2)nc2ccccc12
 : 5.9%	nt	nt	nt	13	-0.6%	2.2
> CC(C)Cc1nn2c(=O)cc(COC(=O)c3cccc(NC(=O)c4cccs4)c3)nc2s1
 : 1.6%	nt	nt	nt	11	-3.1%	0.8
> NC(=S)c1cc2ccc(O)cc2oc1=O
 : 3.9%	?	?	-9	-9	?	-0.6
> CN(C)c1ccc(NC(N)=S)cc1
 : 3.1%	4.4	-20%	-1	-14	nt	-0.3
> Brc1ccc(Br)c2cnccc12
 : -5.9%	nt	nt	nt	-8	-3.6%	1.6
> CC(C)c1ccc(NC(=S)N2CCN(Cc3ccccc3)CC2)cc1
 : 1.7%	-1.0	8%	-11	32	0.4%	2.0
> CC1(C)N=C(N)N=C(N)N1c1cc(Cl)ccc1Cl
 : -0.4%	nt	nt	nt	26	-4.0%	0.0
> O=C(NCCN1CCC(n2c(=O)[nH]c3ccccc32)CC1)c1ccccc1C(F)(F)F
 : -1.0%	nt	nt	nt	nt	-1.5%	-0.4
> NC(=O)c1ccc(NC(=O)c2cccc(Oc3ccccc3)c2)cc1
 : 8.1%	0.4	20%	11	-14	nt	-0.1
> CC(NCC(=O)Nc1ccccc1C(=O)NC1CC1)c1ccc(Cl)cc1 (stereo not given)
 : 0.3%	nt	nt	nt	6	-4.1%	-0.6
> CCOc1ccc(N2CCc3c(C)nc(SC)nc32)cc1
 : 9.1%	-3.8	10%	0	10	nt	1.4
> c1ccc(CN2CCC(N3CCC(N4CCCCCC4)CC3)CC2)cc1
 : -2.0%	-0.2	?	-1	7	-0.1%	-0.5
> O=S(=O)(c1cccc(Br)c1)N1CCN(c2ccnc3cc(Cl)ccc23)CC1
 : -0.4%	nt	4%	12	4	?	0.4
> Cc1ccc(-c2c(C)nn3c(N4CCOCC4)cc(C)nc23)cc1
 : 2.1%	-1.9	-2%	-8	-7	-3.0%	1.3
> COc1ccc(C(C(=O)NC(C)(C)C)N(Cc2ccc(C)cc2)C(=O)CCC(=O)Nc2cc(C)on2)cc1 (stereo not given)
 : 4.4%	-1.4	-5%	-13	3	0.4%	-0.4
> CCCCCCCC(O)CC(CC1CCCCC1)C(=O)NN (stereo not given)
 : 8.0%	8.2	1%	5	-12	2.3%	-0.3
> O=C(c1cc2ccccc2oc1=O)N(c1ccccc1)C1C=CS(=O)(=O)C1 (stereo not given)
 : 4.7%	-1.2	13%	3	-1	?	0.9
> O=C1c2ccccc2C(=O)N1C1C=CC=CC=C1
 : 1.2%	nt	nt	nt	23	-0.1%	-0.2
> CC1S/C(=N/N=C/c2cccc([N+](=O)[O-])c2)NC1=O (stereo not given)
 : 1.1%	1.2	-12%	24	18	-2.4%	0.8
> CCNS(=O)(=O)c1ccc(NC(=O)c2cncc(Br)c2)cc1
 : -1.5%	-0.4	8%	-4	7	-8.4%	0.9
> COc1ccc(CCN=C(N)NS(=O)(=O)c2ccc(C)c(C)c2)cc1
 : 1.0%	-1.2	15%	9	-2	nt	0.4
> C(=N\Nc1nc2ccccc2s1)/c1ccc2c(c1)OCO2
 : 10%	3.8	-17%	-17	6	-1.5%	-0.9
> O=C(NC1CC2CCCC(C1)N2Cc1ccc(F)cc1)c1ccc(F)cc1 (stereo not given)
 : -0.5%	-0.3	-1%	-5	nt	-0.8%	nt
> COc1ccc(NCc2cccn2-c2nnc(N3CCOCC3)s2)cc1OC
 : -4.7%	nt	nt	nt	2	-2.3%	1.5
> Cc1ccc(C)c(OC(=O)c2ccncc2)c1
 : 0.3%	9.0	-7%	-10	-4	1.9%	-1.1
> CCC(Oc1ccccc1)C(=O)NCc1cccnc1 (stereo not given)
 : 1.9%	0.9	16%	2	-5	35µM*	-0.1
> O=C(CCCN1C(=O)c2cccc3cccc(c23)C1=O)Nc1nccs1
 : 1.2%	5.0	14%	16	nt	-13%	nt
> Cc1cccc(C2(c3cccc(C)c3)OC(=O)c3ccccc32)c1
 : 0.1%	3.8	-10%	-6	6	3.1%	0.6
> O=C(O)CC(NC(=S)NCc1ccccc1)C(=O)O (stereo not given)
 : 1.7%	4.7	-6%	-2	-12	1.9%	5.2
> Cc1cccc(N(C(=O)c2cnc3n(c2=O)CCS3)C2CCCCC2)c1
 : 4.6%[38.3 µM]	1.1	4%	-3	-9	-3.3%	-0.2
> CCc1ccccc1-n1c(C)nc2cc(C(=O)NCCc3ccc(Cl)cc3)ccc21
 : ?	nt	nt	nt	-12	-4.1%	1.6
> Cn1c(N)c(C(=O)COC(=O)CC(NC(=O)c2ccccc2Cl)c2ccccc2)c(=O)n(C)c1=O (stereo not given)
 : 2.3%	-1.8	3%	-3	-2	nt	2.0
> CC(=O)Nc1nc(CC(C)C)cc(-c2ccccc2)c1C#N
 : -2.0%	5.8	8%	nt	18	nt	2.9
> Cc1ccc(S(=O)(=O)N[C@@H](CO)C(=O)N[C@@H](Cc2ccc(O)cc2)C(=O)O)cc1
 : 0.2%	0.0	16%	-6	12	0.5%	1.0
> COc1ccc(CSc2nncn2N)cc1[N+](=O)[O-]
 : -2.3%	7.1	-28%	0	1	3.2%	0.6
> O=C(O)c1c2c(nc3ccc(S(=O)(=O)N4CCC(C(=O)NCc5ccccc5)CC4)cc13)CCCC2
 : 0.7%	nt	nt	nt	0	-8.1%	0.1
> CCOC(=O)c1cnc(-n2nc(C)cc2C)nc1Nc1ccc(N(C)C)cc1
 : 15%	3.4	-12%	-9	24	-0.4%	-1.3
> CN1c2ccsc2C(=O)/C(=C\Nc2cccc(C(F)(F)F)c2)S1(=O)=O
 : 4.0%	-4.8	10%	-3	-2	-2.0%	-0.7
> CCCCc1nn2c(=O)cc(COC(=O)COc3ccc(C)cc3)nc2s1
 : -0.6%	nt	nt	nt	5	-23%	0.3
> O=S(=O)(c1ccc2nnn(OCc3ccccc3)c2c1)N1CCOCC1
 : 0.8%	nt	nt	-19	-12	0.7%	-0.3
> COc1ccc(S(=O)(=O)Nc2ccc(F)cc2F)cc1C(=O)N1CCOCC1
 : 0.9%	1.3	15%	24	-13	nt	0.1
> CCOc1ccc(S(=O)(=O)n2ccnc2)c2ccccc12
 : 1.9%	3.7	-5%	1	-4	-16%	-0.4
> Cc1cccc(NC(=O)CN(C)S(=O)(=O)c2ccc(Cl)cc2)n1
 : 3.7%[38.3 µM]	1.1	13%	23	0	-0.3%	3.2
> CCOC(=O)N1CCc2c(sc3c2c(=O)n(Cc2ccccc2)c(=O)n3CC(=O)Nc2ccc(C)cc2C)C1
 : 1.2%	nt	nt	nt	-6	1.2%	-0.6
> COC(=O)c1ccc2nc(-c3cccc(Cl)c3)c(Cc3ccccc3OC)n2c1
 : 1.6%	nt	nt	nt	nt	-30%	-0.1

(further entries)
Second line of a record: PINK1 expr mod	Menin MLL FP FL	Sfp PPTase inh	TRPV1 PAM	TRPML1 blocker	ClpP mod	TRPML1 agonist
> C=CCNC(=S)NNC(=O)c1ccc(OCC)cc1
 : -0.3%	5.5	10%	10	-7	3.3%	-0.3
> CC(C)(Nc1ccccc1)C(=O)c1ccccc1
 : 8.2%	0.8	10%	1	4	0.7%	1.3
> CCN(CC)S(=O)(=O)c1csc(C(=O)NC2CCCCC2)c1
 : 2.0%	-3.2	9%	-4	4	0.9%	-1.0
> COc1ccccc1NC(=O)c1ccc(NC(=O)c2ccc(=O)[nH]c2)cc1
 : 9.7%	nt	nt	1	33	-0.4%	-0.7
> Cc1cccc(N2C(=O)CSC23C(=O)N(CC(=O)NCCc2ccccc2)c2ccccc23)c1 (stereo not given)
 : -4.4%	nt	nt	nt	-2	-0.3%	0.3
> Cc1ccc(C(=O)c2oc3ccccc3c2NC(=O)COc2ccc(Cl)c(C)c2)cc1
 : 1.0%	nt	nt	nt	-3	-8.0%	1.7
> CC(C)NC(=O)c1ccccc1NC(=O)c1nsc2ccccc12
 : -0.6%	nt	nt	nt	-24	0.7%	0.9
> Cc1cc(C)c(NC(=O)C(C)n2nnc3sc(-c4ccccc4)cc3c2=O)c(C)c1 (stereo not given)
 : 2.9%	nt	nt	nt	-22	-0.5%	1.2
> CC1(C)C=C2C(=NN(c3ccccc3)C(N)=C2C#N)CO1
 : -0.8%	-6.8	45µM*	-1	-4	nt	0.6
> CN(C)c1cccc(C(=O)NC2CCCc3ccccc32)c1 (stereo not given)
 : 3.3%	0.3	5%	1	12	nt	1.5
> Cc1ccc(C)c(S(=O)(=O)c2nnn3c2nc(Nc2ccc(C)c(C)c2)c2sccc23)c1
 : -0.5%	nt	nt	nt	-4	-10%	-0.6
> CCOC(=O)c1c(NC(=O)CSc2nc3ccc(OC)cc3[nH]2)sc2c1CC(C)(C)NC2(C)C
 : -1.4%	nt	nt	-14	8	-5.1%	0.5
> Fc1ccc(-c2ccc3c(c2)C2CC3CCN2Cc2ccc3c(c2)OCO3)cc1 (stereo not given)
 : ?	nt	nt	nt	5	1.8%	0.5
> O=C(NCc1ccco1)C1CCN(Cc2ccc(F)cc2)CC1
 : 0.2%	-1.1	1%	4	3	?	-0.4
> NC(=O)C1CCN(c2ccnc3cc(Cl)ccc23)CC1
 : 0.5%	1.8	13%	-4	6	1.2%	-0.2
> CCCOc1ccc(C2C(C#N)=C(N)Oc3nc[nH]c(=O)c32)cc1OC (stereo not given)
 : -1.0%	5.2	-2%	-9	3	-0.7%	0.1
> Cc1ccc(NC(=O)CSc2nc3ccccc3n2CC(=O)N(C)C2CCCCC2)cc1C
 : 4.4%	nt	nt	nt	32	3.9%	2.2
